GLA inh pH 4.5: qHTS Assay for Inhibitors of Human alpha-Galactosidase at pH 4.5 | purified enzyme, 4-MU-alpha-Gal fluorescence, pH 4.5 | activity change, negative = inhibition, % at 105 µM | 230,000 tested, under 10 active | AID 1467, 2008; inconclusive = small, poorly fitted or top-dose-only inhibition, or a rising curve; inactive = flat fitted curve, though single readings scatter; no compound was filed as active;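 note: 0% = full activity with enzyme and -100% = basal without enzyme; dose as in the result columns while the protocol names 77 µM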
miR-21 FLuc: qHTS Assay for Modulators of miRNAs and/orActivators of miR-21; HeLa miR-21 FLuc reporter, luciferase, 48 h; 340,000 tested, under 10 active; Potency, µM (doses to about 38.3 µM), without a hit: at the top dose reporter change, positive = more light; AID 2288, 2010; active = well fitted rising curve with a large enough effect; inconclusive = small, poorly fitted or top-dose-only effect; inactive = no such curve, though single readings can be large or run the other way;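 note: % of control where 0% means no effect; miR-21 action dims this reporter so a rising signal means less miR-21 action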
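HeLa cells stably expressing CMV-driven firefly luciferase with a downstream miR-21 binding sequence, endogenously expressing miR-21, were treated with titrations (up to about 40uM final) for 48 hours at 37 degree Celsius. Luciferase luminescence was read after lysis.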
Rango dissoc inh: qHTS Assay for Inhibitors of RanGTP induced Rango (Ran-regulated importin-beta cargo) - Importin beta complex dissociation; Snurportin-1 (Homo sapiens) + GTP-binding nuclear protein Ran (Homo sapiens) + Importin …; Biochemical FRET Rango-importin beta, RanGTP-induced dissociation; Potency, µM (titrated, usually from 46.1 µM), without a hit: at the top dose activity change, negative = inhibition; 0.071% of 340,000 active; AID 540253, 2011; active means falling FRET ratio curve, often poorly fitted, with flat reads before Ran was added; inconclusive means other falling curves, or compound fluorescence or quenching; inactive means flat or rising ratio curve;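 note: potency is the fitted concentration of half-maximal effect; % of control where 0% means no effect; nearly all actives have a fitted effect of over 45% in size; -100% = wells without RanGTP and RCC1; the record marks most hits as doubtful in a second field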
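Rango/importin beta premix (0.1/0.25 uM final), PBS + 1 mM DTT + 0.02% Tween-20 + 0.1% BSA; cpd 5 min RT; FRET pre-read; + RanGTP-RCC1 (0.6 uM Ran, 2 mM GTP, 0.2 uM RCC1); 45 min RT; FRET post-read, ex 430, em 486/530 nm.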
Rango-impB inh: qHTS Assay for Inhibitors of Rango (Ran-regulated importin-beta cargo) - Importin beta complex formation. Importin subunit beta-1 (Homo sapiens), Q14974. Rango CFP/YFP FRET sensor + importin beta, 45 min. Potency, µM (titrated, usually from 92.2 µM), for inactives: top-dose inhibition of complex formation. 0.031% of 340,000 active. AID 540263, 2011; active = rising FRET ratio curve, often small or poorly fitted; inconclusive = mostly compound fluorescence or quenching in the first reads; inactive = flat curves in all reads;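 note: potency is the fitted concentration of half-maximal effect; 0% = DMSO wells and 100% = buffer wells lacking importin beta; nearly all actives have a fitted effect of over 15% in size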
Target sequence (Q14974 whole entry, looked up): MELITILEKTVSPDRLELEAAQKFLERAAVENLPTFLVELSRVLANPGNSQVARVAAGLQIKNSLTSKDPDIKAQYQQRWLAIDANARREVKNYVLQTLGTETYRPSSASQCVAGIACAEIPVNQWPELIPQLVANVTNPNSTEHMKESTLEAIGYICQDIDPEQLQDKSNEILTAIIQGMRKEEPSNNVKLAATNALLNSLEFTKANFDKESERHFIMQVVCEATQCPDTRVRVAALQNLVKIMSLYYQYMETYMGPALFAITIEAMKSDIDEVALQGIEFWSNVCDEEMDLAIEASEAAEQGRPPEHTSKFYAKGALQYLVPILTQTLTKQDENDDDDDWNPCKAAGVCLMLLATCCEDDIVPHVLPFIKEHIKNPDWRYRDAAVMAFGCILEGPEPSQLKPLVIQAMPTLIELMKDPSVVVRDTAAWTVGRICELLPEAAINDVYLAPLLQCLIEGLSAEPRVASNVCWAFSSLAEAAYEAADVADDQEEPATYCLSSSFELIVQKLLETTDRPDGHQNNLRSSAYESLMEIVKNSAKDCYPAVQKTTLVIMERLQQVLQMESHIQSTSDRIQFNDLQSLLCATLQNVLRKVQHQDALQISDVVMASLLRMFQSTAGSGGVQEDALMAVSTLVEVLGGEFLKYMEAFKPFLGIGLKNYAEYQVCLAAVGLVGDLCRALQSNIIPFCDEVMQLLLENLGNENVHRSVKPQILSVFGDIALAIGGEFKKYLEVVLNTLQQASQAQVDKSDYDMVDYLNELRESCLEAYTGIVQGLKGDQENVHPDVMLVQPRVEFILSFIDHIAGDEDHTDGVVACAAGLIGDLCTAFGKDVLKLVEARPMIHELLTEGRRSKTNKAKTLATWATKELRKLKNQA
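FRET biosensor (snurportin 1 IBB flanked by EYFP and cerulean), 50 nM, with compound 5 min, then 0.125 microM importin beta in PBS, 1 mM DTT, 0.02% Tween-20, 0.1% BSA. CFP/YFP ratio read after 45 min at room temperature; pre-read flags interference.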
* hit, by the source's call; ? = inconclusive; / = no result given; & = joins results of further samples; [ ] = another dose, or the depositor's remark. An excerpt; count on the stated rates, not on these rows.

entry | SMILES | GLA inh pH 4.5 | Rango-impB inh | miR-21 FLuc | Rango dissoc inh
1 | Cc1c(OC(C)C(=O)NCC2CCC(C(=O)O)CC2)ccc2c1oc(=O)c1ccccc12 (configuration not stated) | / | -0.8% | 0% | 1%
2 | CC(=O)OC[C@H]1O[C@@H](Sc2cccc3cccnc23)[C@H](OC(C)=O)[C@@H](OC(C)=O)[C@H]1OC(C)=O | 9 | -1.3% | -5% | 7%
3 | CC(O)[C@H]1CNC(=O)C(=O)N1CC1(c2ccccc2)CC1 (some centres not stated) | 8 | 5.4% | 0% | 23%
4 | NCC(O)(c1ccc(Cl)cc1)c1ccc(Cl)cc1 | 2 | 5.5% | 10% | 1%
5 | Nc1c(-c2ccccc2)c(CN2CCOCC2)nn1-c1ccccc1 | 2 | 1.2% | -7% | -24%
6 | CCOc1ccc(Br)cc1S(=O)(=O)Nc1cccc(S(=O)(=O)Nc2ccccc2C(=O)O)c1 | / | -1.7% | / | 11%
7 | CN(C)CC(C)(C)CNS(=O)(=O)c1cccc2nsnc12 | 0 | -1.2% | -8% | 2%
8 | CC(C)(O)[C@H](O)COc1c2occc2cc2ccc(=O)oc12 | -3 | 1.0% | -2% | 1%
9 | COC(=O)[C@]1(C)N[C@H](CN(C)C(=O)c2ccc(C)cc2)[C@@H]2C(=O)N(Cc3ccccc3)C(=O)[C@@H]21 | / | 0.2% | / | -1%
10 | CC(=O)c1c(C(C)=O)c(C)n(NC(=O)c2ccncc2)c1C | -6 | -3.8% | -3% | 3%
11 | COc1ccc(C#Cc2ccc3c(=O)c4ccccc4n(C)c3c2)cc1 | / | ? | -10% | ?
12 | COc1cc(C(=O)NCCCNc2ccc([N+](=O)[O-])cc2)cc(OC)c1OC | -7 | -1.6% | 18% | 5%
13 | CN1CCN(c2nc(-c3cccnc3)nc3ccccc23)CC1 | 3 | 5.0% | 10% | -5%
14 | O=C1C=C(N(CCO)Cc2ccccc2)c2ccccc2C1=O | -5 | -0.6% | ? | -10%
15 | Cc1ccc(S(=O)(=O)NNC(=O)/C=C/c2cccc(F)c2)cc1 | / | -2.4% | 1% | 6%
16 | COc1ccc(OC)c(NC(=O)CSc2nc(-c3ccccc3)cc(=O)[nH]2)c1 | / | -2.4% | -9% | 0%
17 | CC1CCCCN1C(=O)CSc1nnc(-c2c[nH]c3ccccc23)o1 (configuration not stated) | 4 | 0.9% | -49% | -2%
18 | COc1ccc(OC)c(NC(=O)CSc2nnnn2C2CCCC2)c1 | / | -0.5% | 5% | 4%
19 | Cc1ccc(Cn2c(SCC(=O)Nc3cc(C)on3)nc3ccccc3c2=O)cc1 | -3 | 0.9% | -2% | 25%
20 | O=c1c2c(-c3cccs3)csc2ncn1-n1cccc1 | -4 | -0.5% | -15% | -6%
21 | Cc1nc(-c2cccc(NC(=O)c3cccs3)c2)cs1 | -5 | -1.5% | -30% | -1%
22 | O=C(NCc1ccco1)C1CCN(S(=O)(=O)N2CCOCC2)CC1 | 5 | -1.3% | -4% | 0%
23 | CCC1COCCS(=O)(=O)N1Cc1ccccc1F (configuration not stated) | / | -0.4% | 0% | -11%
24 | O=C1C[C@@H]2c3c(cccc3CN1Cc1ccc(Cl)cc1)C[C@@H](O)[C@H]2O | / | 0.1% | / | 12%
25 | Cc1cn2c(-c3cccnc3)nnc2s1 | 0 | -3.3% | 1% | -3%
26 | CCCCNS(=O)(=O)c1ccc2nc(-c3cccnc3)cc(C(=O)NCCOC)c2c1 | -1 | -6.0% | 4%&0% | -11%
27 | CCN(CC)C(=O)C1CCN(S(=O)(=O)c2ccc(-n3cnnn3)cc2)CC1 | 4 | -2.6% | 5% | -6%
28 | Cc1ccc(-n2nc(C(=O)c3ccccc3)n3c(=O)cc(-c4ccccc4)nc23)cc1 | -10 | ? | -5% | 4%
29 | Cn1c(=O)[nH]c(=O)c2c1nc(N1CCN(C(=O)c3ccco3)CC1)n2CCCSc1ncccn1 | / | -1.5% | / | 14%
30 | CSc1nsc(SC)c1CO | -2 | 1.7% | -3% | 2%

Down the list, as entered above.
GLA inh pH 4.5 for nos. 11–17, in order: /, -7, 3, -5, /, /, 4

The results go on:
entry | SMILES | GLA inh pH 4.5 | Rango-impB inh | miR-21 FLuc | Rango dissoc inh
31 | O=C(Nc1nccs1)C1(c2ccc(Cl)cc2)CC1 | 1 | -1.2% | -1% | 1%
32 | O=C(CCNC(=O)c1ccc(Br)cc1)Nc1cccc(S(=O)(=O)N2CCCC2)c1 | / | 2.4% | / | 0%
33 | CCOc1ccccc1OCCCC(=O)NNC(=O)c1ccc(F)cc1 | / | 2.3% | / | 12%
34 | O=C(NCCN1CCOCC1)C(=O)NCC1OCCN1S(=O)(=O)c1ccccc1 (configuration not stated) | / | -0.1% | 5% | -5%
35 | CCOc1ccc(OCc2cccc(C(=O)N3CCCC3)c2)cc1 | -11 | 0.3% | -49% | -9%
36 | Cc1c(Cl)c([N+](=O)[O-])nn1CC(=O)NCc1cccnc1 | 5 | -2.1% | -4% | 4%
37 | CN(/C(=N\S(=O)(=O)c1ccccc1)C(F)(F)F)c1ccccc1 | -13 | 2.3% | 1% | -18%
38 | O=C(c1ccccc1)c1cc(-c2ccccn2)c(N2CCOCC2)s1 | -4 | ? | -9% | ?
39 | COc1ccc(-c2c(-c3ccsc3)oc(=O)c3cc(OC)c(OC)cc23)cc1 | / | -5.4% | / | 35%
40 | CCCNC(=S)Nc1ccccc1 | -3 | -1.2% | 6% | 20%
41 | CC(=O)Nc1ccc(S(=O)(=O)N2CCN(Cc3cccc([N+](=O)[O-])c3)CC2)cc1 | -1 | -3.1% | -3% | -2%
42 | CCNC(=O)CCSc1nnc(-c2ccncc2)o1 | 8 | 0.0% | 0% | -3%
43 | CCOP(=O)(c1c(F)c(F)c(F)c(F)c1F)C(O)c1ccccc1 (configuration not stated) | 7 | 3.6% | -2% | 7%
44 | CCOCCCNS(=O)(=O)c1ccc(NC(=O)c2ccccc2)cc1 | 4 | 0.0% | -6% | -3%
45 | CCc1c(C(=O)N/N=C/c2ccc(OCc3ccc(F)cc3)c(OC)c2)nnn1-c1nonc1N | / | -0.3% | -14% | 22%
46 | COc1ccc(CSCCc2n[nH]c(=S)n2-c2ccccc2)cc1 | 3 | 2.2% | -7% | -3%
47 | COC(=O)c1ccc(/C=N/NC(=O)CCSc2nc3ccccc3s2)cc1 | 0 | / | -3% | /
48 | O=c1c(C=Nc2cccc(C(F)(F)F)c2)c[nH]n1-c1cccc(Cl)n1 | 6 | -4.3% | -2% | 1%
49 | Oc1ccc(/C=N/n2c(-c3ccco3)csc2=Nc2cccnc2)c(O)c1 | 1 | -1.1% | 15% | 13%
50 | Cc1cccnc1NC(=O)c1ccc(NS(=O)(=O)c2ccc3[nH]c(=O)[nH]c3c2)cc1 | / | 2.8% | / | 10%
51 | COc1ccc(OC)c(NC(=O)CSc2ccc3nnc(-c4cccnc4)n3n2)c1 | -12 | -6.6% | -9% | -3%
52 | CCOc1ccc(S(=O)(=O)N2CCCCC2)cc1NC(=O)C1COc2ccccc2O1 (configuration not stated) | / | 1.5% | / | -3%
53 | Cc1onc(-c2ccccc2)c1C(=O)OCC(=O)Nc1ccc(C#N)cc1 | / | 4.2% | / | -8%
54 | CC(=O)OCC1=C(C(=O)O)N2C(=O)C(NC(=O)Cn3nc(C(F)F)c(Cl)c3C)C2SC1 (configuration not stated) | 1[21.1 µM] | -1.6% | -2% | -1%
55 | O=C(NCc1ccccc1)C1(CC2CC(c3ccccc3)=NO2)CCNCC1 (configuration not stated) | / | -3.7% | / | 8%
56 | COc1ccc(N2CCN(C(=O)c3ccc4c(c3)OCO4)CC2)cc1 | 2 | -1.2% | -9% | -20%
57 | COc1cc(/C=C2\SC(=S)N(CC(=O)NC(C)(C)C)C2=O)cc(OC)c1OC | -21 | ? | -2% | -29%
58 | COCCn1c(SCC(=O)NCC(c2ccccc2)N(C)C)nc2sc3c(c2c1=O)CCC3 (configuration not stated) | / | -2.7% | / | 11%
59 | CCOc1ccc(-c2cccc(NC(=O)c3ccco3)c2)nn1 | / | -1.1% | / | 32%
60 | O=C(CSc1ncnc2c1oc1ccccc12)NC1CCCC1 | / | 0.5% | -1% | 3%

Limited to Rango-impB inh and miR-21 FLuc, for some of the entries so far:
| cpd | SMILES | Rango-impB inh | miR-21 FLuc |
| --- | --- | --- | --- |
| 1 | Cc1c(OC(C)C(=O)NCC2CCC(C(=O)O)CC2)ccc2c1oc(=O)c1ccccc12 (configuration not stated) | -0.8% | 0% |
| 34 | O=C(NCCN1CCOCC1)C(=O)NCC1OCCN1S(=O)(=O)c1ccccc1 (configuration not stated) | -0.1% | 5% |

Further compounds follow.
entry | SMILES | GLA inh pH 4.5 | Rango-impB inh | miR-21 FLuc | Rango dissoc inh
61 | O=c1[nH]c(CSc2ncnc3sc(-c4ccccc4)cc23)nc2ccccc12 | 3 | -2.2% | -1% | -3%
62 | O=C(COC(=O)c1cc(=O)[nH]c2ccccc12)NC1CCCCCCC1 | 5 | 2.5% | -3% | -3%
63 | Cn1c(C(=O)N2CCC(C(N)=O)CC2)cc2c(=O)n(C)c3ccccc3c21 | -3 | 1.5% | -2% | 0%
64 | O=C(CCC(=O)NNC(=S)Nc1ccccc1)NCc1ccccc1 | 7 | -0.2% | -2% | 11%
65 | Cc1c(C(=O)NCc2ccc3c(c2)OCO3)oc2ccc(S(=O)(=O)N3CCC(C)CC3)cc12 | -11 | 6.7% | -6% | 2%
66 | CCOc1cc2[nH]c(=O)n(CCCCC(=O)NC3CCCCCC3)c(=O)c2cc1OCC | 0 | 0.0% | -15% | -4%
67 | Cc1cc(-n2c(SCC(=O)NCCC3=CCCCC3)nc3n[nH]c(C)c3c2=N)ccc1Cl | / | -1.7% | -3% | -9%
68 | c1cc2c(cc1-c1[nH]ncc1CN1CC3C[C@@H]4CC1C[C@H](C3)C4)OCO2 | -7 | 3.4% | -6% | 2%
69 | Cc1ccccc1NC(=O)NC1(C(=O)N2CCC(C(N)=O)CC2)CCCCC1 | / | -0.7% | 1% | 1%
70 | O=C(CCS(=O)(=O)c1cccc2nsnc12)N1CC(=O)N(CCc2ccccc2)C(=O)C1 | -5 | -3.8% | 0% | 0%
71 | CC1CCCC(NC(=O)C2CCN(S(=O)(=O)c3cnc[nH]3)CC2)C1C (configuration not stated) | / | 1.2% | -10% | 23%
72 | O=C(Nc1cccc(F)c1)N1CCN(C/C=C/c2ccccc2)CC1 | -7 | 3.4% | 0% | -9%
73 | COc1ccc(Oc2cc(C)nc(Cl)n2)nn1 | 7 | 2.5% | 6% | -4%
74 | COc1cc2c(cc1O)CCN(C(=O)CSc1nncn1C)[C@@H]2C | / | -1.7% | / | -22%
75 | COc1ccc(OCCn2c(N)nc3ccccc32)cc1 | / | 0.3% | -8% | 6%
76 | O=C(N[C@@H](Cc1ccccc1)C(=O)OCc1ccccc1)c1nc[nH]c1C(=O)N[C@@H](Cc1ccccc1)C(=O)OCc1ccccc1 | / | 2.5% | 13% | 0%
77 | c1ccc(OCc2nc3ccccc3s2)cc1 | -1 | ? | -58% | ?
78 | COc1ccc(C(NC(=O)CNC(C)=O)C(=O)Nc2ccc3c(c2)OCCO3)cc1 (configuration not stated) | 5 | -1.6% | -10% | 1%
79 | Cc1ccc(-c2ccc(/C=N/NC(=O)Cc3nnc(N)s3)o2)cc1Cl | -1 | -7.7% | -17% | ?
80 | Cc1c(CC(=O)O)c(=O)oc2c(C)c(OCc3ccc(F)cc3Cl)ccc12 | / | -5.0% | -6% | 24%
81 | CCCCNC(=O)c1c(O)c2cccc3c2n(c1=O)CCC3 | -5 | 8.0% | -8% | 0%
82 | NC(=O)c1ccc(C(F)(F)F)n(Cc2ccc(F)c(F)c2)c1=O | -10 | 0.1% | -12% | -20%
83 | CCOc1ccc(-c2csc(NC(=O)C3CCCO3)n2)cc1 (configuration not stated) | -10 | 1.7% | -28% | 1%
84 | O=C(CSc1nc2ccccc2s1)Nc1ccc(C(=O)O)cc1 | 4 | -0.1% | -9% | -5%
